# Screens deposited in PubChem BioAssay by ICCB-Longwood Screening Facility, Harvard Medical School.
# Choline anaer gr: blocks anaerobic gram-negative growth on choline; Gram-negative bacterium anaerobic choline minimal medium, absorbance growth; stronger effect = lower value; many inactives read as strong as hits in the columns shown; calls only; actives 0.2% (n = 55,000); AID 1963822;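 active = growth z-score on choline under -2 at 7 or 20 h with little or no fall on glycerol, limits in tiers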;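 also: stock transfer was 300 nL into about 50 µL; the organism is E. coli; final concentration not given here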
# Choline anaer gr early: second read-out of Choline anaer gr, no call of its own (marks repeat the call); z-score; measured here: choline growth z-score, timepoint 1;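 score of optical density at 7 h as mean of two plates; lower means less growth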
# Numbers without * were called inactive; i = inactive; & = joins results of further samples. Not all compounds are listed; rates above refer to the full screens.
SMILES,Choline anaer gr,Choline anaer gr early
COC(=O)c1ccccc1NC(=O)N1CCN(Cc2cc(=O)n3nc(-c4ccccc4F)sc3n2)CC1,i,-1
CC(C)NC(=O)C1CCN(c2nnc(N3CCCC3=O)s2)CC1,i,0.69
O=c1cc(N2CCN(S(=O)(=O)c3ccc(F)c(F)c3)CC2)nc2sc(-c3ccccc3)nn12,i,-1.3
COc1cccc(NC(=O)c2c(N)c(C(=O)c3ccc(C)cc3)n3ccccc23)c1,i,0.39
O=C(c1noc2ccc(S(=O)(=O)N3CCN(c4ccc(F)cc4)CC3)cc12)N1CCCC1,i,-0.57
Cc1cccc(-c2noc(-c3ccc(NC(=O)C4CC(=O)N(c5ccccc5C)C4)cc3)n2)c1 (stereo unspecified),i,1
COCCNC(=O)c1cccc(N2CCCS2(=O)=O)c1,i,0.34
Cc1ccccc1C(=O)Nc1ccc2c(c1)nc1n2CCN(Cc2ccccc2)C1,i,0.08
Cc1ccc(N2C(=O)Nc3ccccc3S2(=O)=O)cc1Cl,i,0.69
O=C1c2cccc(O)c2C(=O)c2c(O)cccc21,i,0.47
Cc1nn(-c2ccccc2)c2c1N(CC(=O)NC1CCN(Cc3ccccc3)CC1)C(=O)CS2,i,-0.79
COc1ccc(-c2nc(C(=O)N3CCN(C)CC3)sc2-c2ccc(OC)cc2)cc1,i,1.1&-0.14
O=C(CN1c2ccccc2NC2=C(C(=O)CCC2)C1c1ccco1)NC1CCCCCC1 (stereo unspecified),i,-1.7
COc1ccc(-c2noc(-c3cn(CC(=O)NCc4ccc(C)cc4)c4nc(C)ccc4c3=O)n2)cc1,i,0.39
CC(C)NS(=O)(=O)c1ccc2c(c1)CCN2C(=O)NC1CCCCC1,i,0.18
O=S(=O)(c1cccc(F)c1)N1CCC(c2noc(-c3ccccc3)n2)CC1,i,0.08
CCNC(=O)C1CCCN(C(=O)c2cc(-c3ccncc3)n[nH]2)C1 (stereo unspecified),i,-1.1
CC(C)CNS(=O)(=O)c1cc(-c2nc(C(C)(C)C)cs2)cs1,i,-0.16
O=C(CCn1cnc2onc(-c3ccccc3)c2c1=O)NC1CC1,i,-0.39
Cc1nc(-c2ccc(F)cc2)sc1-c1ccc(SCc2cccnc2)nn1,i,1.6
Cc1nc2sc(C)c(C)n2c(=O)c1N,i,-0.4
O=S(=O)(c1ccc(-c2nnc(C3CCCC3)o2)o1)N1CCCCCC1,i,0.8
CC(=O)Nc1ccc2nc(N3CCC(C(=O)N4CCN(c5ccccc5F)CC4)CC3)cc(C)c2c1,i,-2.1
FC(F)(F)c1cc(-c2ccccn2)nc2c(-c3ccccc3)cnn12,i,0.49
CN(C)S(=O)(=O)c1ccc(-c2noc(C(=O)NCC3CCCO3)n2)cc1 (stereo unspecified),i,-1

# 4 entries from above, with each value named.
COC(=O)c1ccccc1NC(=O)N1CCN(Cc2cc(=O)n3nc(-c4ccccc4F)sc3n2)CC1
- Choline anaer gr: i
- Choline anaer gr early: -1
O=C(c1noc2ccc(S(=O)(=O)N3CCN(c4ccc(F)cc4)CC3)cc12)N1CCCC1
- Choline anaer gr: i
- Choline anaer gr early: -0.57
O=S(=O)(c1cccc(F)c1)N1CCC(c2noc(-c3ccccc3)n2)CC1
- Choline anaer gr: i
- Choline anaer gr early: 0.08
Cc1ccccc1C(=O)Nc1ccc2c(c1)nc1n2CCN(Cc2ccccc2)C1
- Choline anaer gr: i
- Choline anaer gr early: 0.08

# The listing picks up with the 2 entries that preceded the break.
SMILES,Choline anaer gr,Choline anaer gr early
FC(F)(F)c1cc(-c2ccccn2)nc2c(-c3ccccc3)cnn12,i,0.49
CN(C)S(=O)(=O)c1ccc(-c2noc(C(=O)NCC3CCCO3)n2)cc1 (stereo unspecified),i,-1
O=C(CSc1nccn2nc(-c3ccccc3)cc12)NCc1ccccc1,i,0.64
Cc1ccc(-c2nn3c(=O)c(NC(=O)c4ccc(C(C)(C)C)cc4)cnc3o2)cc1,i,0.1
CCn1c(C)c(C2=CCN(S(=O)(=O)c3ccc(OC)c(OC)c3)CC2)c2ccccc21,i,-0.57
CC(C)n1c(N2CCN(C(=O)CCC(=O)N3CCOCC3)CC2)cc(=O)n(C(C)C)c1=O,i,0.32
O=C(c1ccc(F)cc1)N1CCN(C(=O)c2cc3cc(Br)ccc3[nH]2)CC1,i,-0.28
COc1ccc(-c2nc(CN3CCC(C(=O)NCc4ccccc4Cl)CC3)c(C)o2)cc1OC,i,1.2
CCC(=O)Nc1nc2c(s1)CC(C)CC2 (stereo unspecified),i,-0.04
O=C(NCCC1=CCCCC1)c1cccc(Oc2ccnc(-c3ccc(F)cc3)n2)c1,i,1.5
CCCS(=O)(=O)c1nc2ccc(NS(=O)(=O)c3ccc4c(c3)CCC4)cc2s1,i,0.86
Cc1cccc(NC(=O)N2CCCN(c3ccc(=O)n(-c4ccc(F)cc4)n3)CC2)c1,i,0.19
CCNC(=O)NC1CCN(C(=O)C2CC2)C1 (stereo unspecified),i,0.6
O=C(Nc1ccccc1)Nc1cccc(-c2noc(C3CCCCC3)n2)c1,i,-0.43
Cc1ccc(CNC(=O)c2cc3n(n2)CCCC3)o1,i,0.36
CCOCCCn1c(SCC(=O)Nc2oncc2-c2ccc(Cl)cc2)nc2ccccc2c1=O,i,-0.74
CNC(=O)c1ccc(Cn2c(=O)c3cc(OC)c(OC)cc3n(CC(=O)NCc3ccc(F)cc3)c2=O)cc1,i,0.35
Cc1ccc(C(C)NC(=O)CCCc2nc(-c3cc4ccc(C)cc4[nH]c3=O)no2)cc1 (stereo unspecified),i,-0.63
COCCCNC(=O)c1ccc2c(c1)nc1n2CCOC1,i,-1.3
O=C(CCc1nc(CSc2nnc(-c3ccccc3)o2)no1)Nc1ccccc1,i,-1.2
O=C(NC1CCN(c2ncnc3c2CCC3)C1)C1(c2ccccc2)CC1 (stereo unspecified),i,0.27
COc1ccc(C(=O)Nc2nc(CC(=O)NC3CCCC3)cs2)cc1,i,-0.75
Cc1ccc(NC(=O)N2CCN(Cc3nc4cc(C(=O)N(C)C)ccc4n3C)CC2)cc1,i,0.26
CCCSCCCNC(=O)C1CCCN(S(=O)(=O)c2ccc3c(ccn3CC)c2)C1 (stereo unspecified),i,1.1
CC(C)N1CCN(C(=O)C2CCN(c3cncnc3N3CCOCC3)CC2)CC1,i,0.25
CC(=O)Nc1ccc(-c2cc(C(=O)NCCc3c[nH]c4ccccc34)c3ccccc3n2)cc1,i,-0.37
Cc1nc(Nc2ccc(N3CCOCC3)cc2)cc(-c2ccccc2)n1,i,-0.98

# New compounds follow:
SMILES,Choline anaer gr,Choline anaer gr early
COc1cc(Cc2cnc(N)nc2N)cc(OC)c1OC,i,-2.5&0.76&-2.9&-3.9
O=C(CN1C(=O)COc2ccccc2C1=O)c1ccc(F)cc1,i,-1.7
CN(C)C(=O)n1nnnc1Cc1ccc(-c2ccccc2)cc1,i,-0.14
COc1cc2[nH]c3c(SCC(N)=O)ncnc3c2cc1OC,i,0.54
Cc1ccc(NC(=O)c2nnc(C3CCCN(S(=O)(=O)c4c(C)n[nH]c4C)C3)s2)cc1 (stereo unspecified),i,-1.5
O=C(Nc1ccc2c(c1)OCO2)c1c(-c2ccc(Cl)cc2)nc2n1CCS2(=O)=O,i,0.91
CC(C)NC(=O)CN1C(=O)CC(C)Sc2ccc(S(=O)(=O)N3CCCCC3)cc21 (stereo unspecified),i,0.37
Clc1ccc(CNc2ccc3nnc(-c4ccccc4)n3n2)cc1,i,-0.66
CCCCn1c(=O)c2[nH]c(C34CC5CC(CC3C5)C4)nc2n(CCCO)c1=O,i,0.06
Cc1cc2nc(C)c(=O)n(Cc3ccc(C(=O)N4CCN(c5ccccn5)CC4)cc3)c2cc1C,i,1.4
Cc1ccc(CNC(=O)CNS(=O)(=O)c2cc(-c3noc(C)n3)sc2C)cc1,i,3.6
COc1cc(CN2CCCC2c2c(C)noc2C)cc(OC)c1 (stereo unspecified),i,-1.1
C=CCOc1ccc(CNCCSc2nnnn2-c2ccccc2)cc1OCC,i,-0.47
CCCCOc1ccc(C(=O)NCc2csc(-c3ccc(OC)cc3)n2)cc1,i,0.14
CC(C)Oc1ccccc1-c1nn2c(=O)c(NC(=O)c3ccccc3)cnc2o1,i,1.1
Cc1nc(-c2cc(S(=O)(=O)Nc3cccc(Cl)c3F)c(C)s2)cs1,i,0.19
CCn1c(=O)c(=O)[nH]c2cc(-c3noc(-c4ccc5c(c4)OCO5)n3)ccc21,i,-2
COc1ccc(C(=O)Nc2ccccc2-c2ccc3ccccc3n2)cc1,i,2.4
COc1ccc(CNC(=O)C2(C)Cn3nc(C)cc3C(=O)N2c2cc(OC)cc(OC)c2)cc1 (stereo unspecified),i,0.41
CC(C)(C)S(=O)(=O)c1ccc(NC2CCCCCC2)nn1,i,0.47
O=C(CCc1nc2sc3c(c2c(=O)[nH]1)CCCCC3)NC1CC1,i,-0.24
COC(=O)Cn1c(=O)c2c(OC)ccnc2n(C)c1=O,i,-1.2
CC1CCN(S(=O)(=O)c2cccn(Cc3cccc(F)c3)c2=O)CC1,i,0.85
Cc1ccc(-c2cc(-c3nc4c5ccccc5ncn4n3)[nH]n2)c(C)c1,i,0.37
COc1cc2[nH]c3c(=O)n(CCC(=O)N4CCN(c5ccccn5)CC4)cnc3c2cc1OC,i,0.09

# Next records follow:
SMILES,Choline anaer gr,Choline anaer gr early
CCCCCC(=O)CC[C@H]1C(=O)C[C@H](O)[C@@H]1C/C=C\CCCC(=O)O,i,-0.38
COc1ccc(CN2CCCC2c2c(C)noc2C)cc1Br (stereo unspecified),i,-0.61
Cc1cc(Br)ccc1NC(=O)C1CCN(C(=O)c2cccn2-c2cccnc2)CC1,i,0.02
Cc1cc(-c2nn3c(-c4ccccn4)nnc3s2)c2ccccc2n1,i,-2.3
CC(C)n1c(=O)oc2cc(S(=O)(=O)N3CCN(C(=O)c4cc5ccccc5[nH]4)CC3)ccc21,i,0.78
O=S(=O)(c1ccc2c(c1)OCCO2)N1CCn2cccc2C1c1ccccc1 (stereo unspecified),i,0.78
O=C(COc1ccc(F)cc1)N1CCC(c2nc3ccccc3s2)CC1,i,0.14
O=C1C(=O)N(C2CCN(C(=O)C3CCCCC3)CC2)CCN1Cc1ccc(F)cc1,i,-0.33
Cc1ccc(-c2nnc(-c3nc(NC(C)c4ccccc4)c4ccccc4n3)o2)cc1 (stereo unspecified),i,1.7
C#CCOC(=O)c1sc2ccccc2c1Cl,i,-1.1
COc1cc(C2Nc3c(C)cc(C)cc3[C@H]3OCC[C@@H]23)cc(Br)c1OC (stereo partly specified),i,0.1
CCc1ccc(NC(=O)c2ccc(-n3nc(N4CCCC4)ccc3=O)cc2)cc1,i,-1.6
N#CC1=CN(c2cc(F)ccc2F)c2cc(Cl)ccc2S1(=O)=O,i,0.75
Cc1ccc(-c2noc(Cn3cnc4c(cnn4-c4ccc(Br)cc4)c3=O)n2)cc1C,i,-0.31
CC(NCCC(c1ccccc1)c1ccccc1)c1ccccc1 (stereo unspecified),i,0.71
CCOC(=O)N1CCN(Cc2nc(-c3ccc(N4CCC(C)CC4)nc3)no2)CC1,i,0.17
CCCCSc1cc2c(cc1NC(=O)CC)n(C)c(=O)n2C,i,0.19
CCC1CCCCN1CCCN1C(=O)c2cc3sccc3n2CC1(C)C(=O)NC1CCCCC1 (stereo unspecified),i,-0.02
CC(C)N1CCN(Cc2nc(-c3ccc(N4CCCC4)nc3)no2)CC1,i,-0.11
c1nc(N2CCN(Cc3ccc4c(c3)OCO4)CC2)c2c3c(sc2n1)CCCC3,i,-0.1
COc1ccc(C2C3=C(CC(c4ccc(O)cc4)CC3=O)Nc3onc(C)c32)cc1O (stereo unspecified),i,-1.1
COc1ccc(C2c3c(-c4ccccc4)n[nH]c(=O)c3Nc3nnnn32)cc1 (stereo unspecified),i,0.79
CCCC(=O)N1CC(=O)Nc2ccccc21,i,-0.22
O=c1c2n[nH]c(=O)n2ccn1-c1ccccc1,i,0.45
COc1ccc(CC(=O)Nc2nc(-c3ccccc3)ns2)cc1,i,0.67

# Brought forward from above: 6 entries; new compounds follow.
SMILES,Choline anaer gr,Choline anaer gr early
c1nc(N2CCN(Cc3ccc4c(c3)OCO4)CC2)c2c3c(sc2n1)CCCC3,i,-0.1
COc1ccc(C2C3=C(CC(c4ccc(O)cc4)CC3=O)Nc3onc(C)c32)cc1O (stereo unspecified),i,-1.1
COc1ccc(C2c3c(-c4ccccc4)n[nH]c(=O)c3Nc3nnnn32)cc1 (stereo unspecified),i,0.79
CCCC(=O)N1CC(=O)Nc2ccccc21,i,-0.22
O=c1c2n[nH]c(=O)n2ccn1-c1ccccc1,i,0.45
COc1ccc(CC(=O)Nc2nc(-c3ccccc3)ns2)cc1,i,0.67
CCCCN1CC(=O)N(c2cc(C)cc(C)c2)[C@@H]2CS(=O)(=O)C[C@@H]21,i,-0.67
Cc1ccccc1-c1cc2n(C)c(C)c(CCC(=O)NC3CCCC3)c(=O)n2n1,i,-1.1
O=c1c2c(nc3nc(CNc4ccccc4Cl)[nH]n13)CCC2,i,-0.31
Cc1nonc1NC(=O)c1ccc(Cl)cc1,i,-1.6
Cc1cc(F)ccc1NS(=O)(=O)c1cn(C)cn1,i,-0.75
COc1ccc(Br)cc1CNC(=O)CCc1ccc(-n2cnc3cccnc32)cc1,i,1.1
CC1CCN(C(=O)c2ccc(CN3C(=O)CCn4nc(-c5ccc(Cl)cc5)cc43)cc2)CC1,i,0.47
Cc1cc(C)c2c3c(sc2n1)C(=O)N(Cc1ccccc1)C(C)N3 (stereo unspecified),i,0.25
CCOC(=O)c1ccc(NC(=O)c2nn(-c3ccc(F)cc3)c(=O)cc2OC)cc1,i,0.44
O=C(C1CCCN(C(=O)C2CCC2)C1)N1CCOCC1 (stereo unspecified),i,-0.58
COc1ccc(CC(=O)NCc2ccc3c(c2)N(C(=O)c2ccc(Cl)cc2)CC3)cc1,i,-0.32
CCC(C(=O)N1CCN(c2ccccc2)CC1)N1C(=O)CCCc2ccccc21 (stereo unspecified),i,-0.11
